Screening results: PubChem BioAssay, National Center for Advancing Translational Sciences (NCATS)
Vaccinia mCherry: vaccinia inhibition (mCherry reporter); Vaccinia virus mCherry reporter infection, fluorescence; about a quarter of the inactives have no number; Potency, µM (highest dose often 36.5 µM), without a hit: top-dose activity change, negative = inhibition, hits mostly inhibitors; actives 0.63% (n = 310,000); active = well fitted inhibition curve with a large enough effect; inconclusive = small, poorly fitted or top-dose-only effect; inactive = no such curve, though single readings can be large or run the other way; tested in A549 cells; note: nearly all actives have a fitted effect of over 35% in size; inactives centre near -10
Vaccinia Venus: vaccinia inhibition (Venus reporter); Potency, µM (series often up to 36.5 µM), for inactives: at the top dose activity change, negative = inhibition, hits mostly inhibitors; actives 0.46% (n = 330,000); AID 720580; Vaccinia virus Venus reporter expression, fluorescence; active means well fitted inhibition curve with a large enough effect; inconclusive means small, poorly fitted or top-dose-only effect; inactive means no such curve, though single readings can be large or run the other way; tested in A549 cells; note: nearly all actives have a fitted effect of over 30% in size; inactives centre near -10
* marks the source's active call; other numbers are inactive results; i = inactive; ? = inconclusive; nt = no result given; & = joins results of further samples; [ ] = remark or other dose. % is set by controls: 0 for no effect and ±100 for the full control effect; potency is the fitted concentration of half-maximal effect.

Molecule	Vaccinia mCherry	Vaccinia Venus
CCOc1ccc(/C=N/NC(=O)c2c(-c3ccccc3)noc2C)cc1	i	-5.3%
Cc1c(OCc2ccc([N+](=O)[O-])cc2)ccc2c3c(c(=O)oc12)CCC3	i	-2.9%
O=C(CCS(=O)(=O)c1ccccc1)Nc1ccc(-c2nc3ccccc3s2)cc1	-16.9%	-5.3%
O=C(Oc1ccc(Oc2ccccc2)cc1)N1CCC(O)CC1	-12.6%	-8.0%
O=C(NCc1ccccc1Cl)c1ccc(S(=O)(=O)NCc2ccco2)cc1	-12.7%	6.5%
COc1ccc(C(=O)Nc2cccc3c2CCCC3)c(OC)c1	i[7.34 µM]	-14.8%[7.34 µM]
CCOc1ccc(C(=O)CCC(=O)NNC(=O)CCN2CCN(c3ccccc3)CC2)cc1	-12.1%	1.0%
C[C@@H]1CN([C@H](C)CO)C(=O)CCCn2nncc2CO[C@H]1CN(C)S(=O)(=O)c1ccc(C#N)cc1	7.8%	3.5%
O=C(c1ccc2c(c1)OCO2)c1cn(Cc2ccc(Cl)cc2)c2ccc(F)cc2c1=O	-20.1%	-17.8%
O=C(N/N=C/c1ccc(Sc2nc3ccccc3s2)c([N+](=O)[O-])c1)c1ccccn1	-4.7%	-11.8%
N=C1C(c2ccc(Br)cc2)=C(O)C2CCc3ccccc3N12 (centres undefined)	-19.9%	-6.1%
NC(=O)N/N=C/c1ccc(OCc2cccc(Cl)c2)cc1	-8.5%	-6.5%
CCOc1ccc(S(=O)(=O)N2CCC(N3CCN(Cc4ccc(F)cc4)C(=O)C3=O)CC2)cc1	?	-28.4%
NC(=O)C(=O)N/N=C1\CCc2ccccc21	i	-8.8%
COc1ccccc1C/C(N)=N/OC(=O)COc1ccc2ccccc2c1	-5.9%	-9.1%
CCC(C)C(=O)O[C@@H]1C[C@@]2(C)C(c3ccoc3)OC(=O)CC23OC2(C)O[C@@]14[C@@]1(C)C(CC(=O)OC)C5(C)CC1(O)C(O)(C5OC(=O)C1(C)OC1C)C(OC(C)=O)[C@@]34O2 (some centres undefined)	-8.3%	-11.9%
O=C(N/C(=C/c1cccc([N+](=O)[O-])c1)C(=O)N1CCCCC1)c1ccco1	i	-8.3%
CCc1ccc(NC(=O)c2cc3ccccn3n2)cc1	-19.7%	-13.1%
O=S1(=O)CC(N2CCN(Cc3ccccc3F)CC2)CN1Cc1cn(Cc2cccc(Cl)c2)nn1 (centres undefined)	11.1%	-10.6%
FC(F)(F)c1cccc(Cn2cnc(NC(=S)NCCc3ccccc3)n2)c1	?	-16.3%

In another format: entries from further up
CCOc1ccc(S(=O)(=O)N2CCC(N3CCN(Cc4ccc(F)cc4)C(=O)C3=O)CC2)cc1
  Vaccinia mCherry: ? | Vaccinia Venus: -28.4%
NC(=O)C(=O)N/N=C1\CCc2ccccc21
  Vaccinia mCherry: i | Vaccinia Venus: -8.8%
COc1ccccc1C/C(N)=N/OC(=O)COc1ccc2ccccc2c1
  Vaccinia mCherry: -5.9% | Vaccinia Venus: -9.1%
CCC(C)C(=O)O[C@@H]1C[C@@]2(C)C(c3ccoc3)OC(=O)CC23OC2(C)O[C@@]14[C@@]1(C)C(CC(=O)OC)C5(C)CC1(O)C(O)(C5OC(=O)C1(C)OC1C)C(OC(C)=O)[C@@]34O2 (some centres undefined)
  Vaccinia mCherry: -8.3% | Vaccinia Venus: -11.9%

(more compounds)
Molecule	Vaccinia mCherry	Vaccinia Venus
CCOC(=O)C1CCCN(C(=O)c2ccc(Cl)c(S(=O)(=O)N3CCCCCC3)c2)C1 (centres undefined)	-6.9%	-5.4%
O=C(/C=C\c1ccccc1OC(=O)c1ccccc1F)c1cc2ccccc2o1	-15.7%	-13.4%
O=C(NNC(=S)NC(=O)c1cccnc1)c1ccc(F)cc1	i[7.34 µM]	-1.4%[7.34 µM]
C[C@]12CCC(=O)C=C1CCC1C2C(O)C[C@]2(C)C1CC[C@]2(O)C(=O)COC(=O)CCC(=O)O (some centres undefined)	-14.6%	-9.8%
CN1[C@@H]2CC[C@H]1CC(OC(c1ccccc1)c1ccccc1)C2 (some centres undefined)	-21.0%	-10.3%
COCCNC(=O)CS(=O)(=O)Cc1nc(-c2ccc(C)cc2)oc1C	i	-14.5%
CSC1=NCCN1C(=O)COc1ccc2ccccc2c1	1.6%	-6.1%
CN(C(=O)CCCN1C(=O)c2ccccc2C1=O)C1CCCCC1	-20.8%	-10.7%
COc1ccc(C(=O)Nc2c(F)c(F)c(F)c(F)c2F)c(OC)c1	nt	-8.6%
O=C(Nc1ccccc1)[C@@H]1CC=C[C@@H]2CCN(Cc3ccccc3)C(=O)[C@@H]21	-14.2%	0.0%&-10.4%
O=c1c2ccccc2ncn1-c1ccccc1F	-9.0%	-9.0%
O=C(NCc1ccccc1)c1ccc(S(=O)(=O)N2CCCCCC2)cc1	-11.3%	-11.8%
COc1ccc(-c2[nH]n(-c3ccc([N+](=O)[O-])cc3)c(=O)c2C=NCC2CCCO2)cc1 (centres undefined)	9.7%	1.2%
O=C(Nc1cccc(F)c1)c1ccc(-c2cccnc2)c2ccoc12	-5.3%	-8.1%
CC(C)CCNC(=O)C(=O)Nc1c2c(nn1-c1ccc(Cl)cc1)CSC2	-27.3%[7.34 µM]	-19.7%[7.34 µM]
CC1=CC(O)C(O)C2(C)C1CC1OC(=O)CC3C(C)C(O)C(=O)C2C13CO (centres undefined)	8.91µM*	6.31µM*
Cc1c(Cl)cccc1Nc1nc(N)nc(CN2CCc3ccccc3C2)n1	?	-26.6%
COc1ccc(-c2nc(CS(=O)(=O)CC(=O)NC3CCCCC3C)c(C)o2)cc1 (centres undefined)	i	-5.1%
Cc1ccc(-n2c3c(c(=O)[nH]c2=O)C(NS(=O)(=O)c2ccc(Cl)cc2)(C(F)(F)F)C(=O)N3)cc1 (centres undefined)	-7.8%&-13.9%	-4.3%&-7.3%
O=C(Cc1ccc(F)cc1)Nc1cccc(S(=O)(=O)N2CCCC2)c1	-13.0%	1.3%
COc1ccc(C)cc1NC(=S)NNC(=O)c1ccccc1Cl	?	-11.6%
Cc1cccc(OCCCn2c(=O)oc3ccccc32)c1	-10.3%	1.6%
COc1ccc(-c2ccc(OC)c(OC)c2OC)c(OC)c1OC	-2.7%	-19.0%
COc1cc(NC(=O)C2=CC(c3ccco3)=NS(=O)(=O)N2C)cc(OC)c1OC	-9.7%	-2.9%&-5.4%
COc1cc(OC)c2c(-c3ccccc3)cc(=O)oc2c1C(CCN1CCCCC1)c1ccc(N(C)C)cc1 (centres undefined)	?	?
CCCc1ccc(-c2csc(NC(=O)Cc3cccs3)n2)cc1	nt	-25.4%
CN(C)C(CNC(=O)CCc1c[nH]c2ccccc12)c1ccccc1 (centres undefined)	-13.8%	-9.6%
Cc1ccccc1CN1CCC(n2nccc2NC(=O)c2cccnc2)CC1	-4.5%	-5.4%
CCc1cc(C(=O)Nc2cc(S(=O)(=O)N(CC)CC)ccc2N2CCN(C)CC2)sc1C	-14.1%	-8.4%
CCc1cccc(OCC(=O)Nc2ccc(S(=O)(=O)Nc3cc(C)nc(C)n3)cc2)c1	-2.6%	-1.9%
CCCOC(=O)c1c(NC(=O)c2nc3ncccn3n2)sc(C(=O)OCC)c1C	-18.0%	-5.2%
CCCn1nnnc1SCC(=O)NCc1ccc2c(c1)OCO2	-8.8%	-3.8%
CCC1c2ccc(C)n2CCN1C(=O)Nc1cc(Cl)ccc1OC (centres undefined)	4.1%	4.5%
Cc1nnc(SCC(=O)N(C(C)C)C(C)C)nc1C	-1.8%[1.46 µM]	-23.1%
CN(C)CCOCCOc1ccc(Cl)c2ccccc12	-23.4%	-11.8%
CCc1ccc(N=CC23c4ccccc4C(c4ccccc42)C2C(=O)N(c4ccc(OC)cc4)C(=O)C23)cc1 (centres undefined)	?	?
CC(=O)NC1=NN(C(C)=O)C(C)(c2cccs2)S1 (centres undefined)	nt	?
COc1ccc(N(CC(=O)Nc2cccc(N(C)S(C)(=O)=O)c2)S(=O)(=O)c2ccc(F)cc2)cc1	-18.0%	-28.0%
CCCCC(CC)C(=O)Nc1cc(C(=O)NCc2ccc(C)cc2)ccc1N1CCC2(CC1)CC(c1cccc(Br)c1)=NO2 (centres undefined)	i	-16.6%
O=C(CS(=O)(=O)c1c[nH]c2ccccc12)NC1CCCCC1	i	-7.3%
Cc1cccc(NC(=O)CNC(=O)c2ccc(-n3cncn3)c([N+](=O)[O-])c2)c1C	i	5.8%
Cc1nnc(NC(=O)CSc2cn(CCNC(=O)c3ccccc3)c3ccccc23)s1	i	-17.3%
COc1ccc(CNC(=O)/C(C)=C\C(=O)O)cc1	i	-10.5%
CC(C)(C)C(=O)NC1CCN(S(C)(=O)=O)CC1	-17.3%	-8.2%
Cc1ccc([C@H]2C(C(=O)O)=CC[C@@H](c3ccc(C)cc3)N2S(=O)(=O)c2ccccc2C)cc1	-10.8%	-2.8%
CCOP(=O)(OCC)c1nc(-c2cccc3ccccc23)oc1N1CCOCC1	-14.3%	-23.3%
CC1(Cc2cccc(F)c2)C(=O)Nc2ccc(S(=O)(=O)NC3CCCCC3)cc21 (centres undefined)	i	-15.2%
Cc1cc(C)c(NC(=O)Cn2nc(-c3ccccc3)nc2-c2ccccc2)c(C)c1	-12.4%	-7.7%
COc1ccccc1Cn1cc(C(=O)c2ccc(Cl)cc2)c(=O)c2ccccc21	-5.6%	?
CCn1c(C)c(C2N3CC4(C)CN2CC(C)(C3)C4=O)c2ccccc21 (centres undefined)	3.1%	-16.7%

More compounds follow.
Molecule	Vaccinia mCherry	Vaccinia Venus
COCCn1c(=O)[nH]c2cc(C(=O)NCc3ccccc3Cl)ccc2c1=O	?	17.6%
c1ccc2sc(-c3cc4c(c(OC5CCOC5)c3)OCCN(Cc3cccn3-c3nccs3)C4)nc2c1 (centres undefined)	-12.4%	-4.9%
Cc1ccc(-n2cccc2C(=S)N=P(N(C)C)(N(C)C)N(C)C)cc1	?	-28.7%
CC(C)(C)Sc1ccc(N)nc1	-8.5%	-1.6%
CCOC(=O)N1CCN(c2cc(C)c(C(C)=O)cc2F)CC1	-7.1%	-0.6%
Cc1cccc(Nc2nnc(-c3ccc(C)c(S(=O)(=O)NCC4CCCO4)c3)c3ccccc23)c1 (centres undefined)	-16.5%	-27.5%
COc1ccccc1C(=O)Nc1ccc(Oc2nnc(-c3ccc(C)cc3)c3ccccc23)cc1	-9.5%	-6.5%
Cc1ccc(OCC(=O)N/N=C\c2cn(Cc3ccccc3)c3ccccc23)cc1C	-18.4%	-9.0%
COC(=O)Oc1ccc(/C=N/NC(=O)CSCc2ccccc2Br)cc1OC	?	?
C=COC(=O)NC1CCc2cc(OC)c(OC)c(OC)c2-c2ccc(SC)c(=O)cc21 (centres undefined)	-1.1%	?
CCC(C(=O)N/N=C/c1cccnc1)c1ccccc1 (centres undefined)	i	-8.9%
COc1ccc(S(=O)(=O)/N=C2/NC(=O)/C(=C/c3ccco3)S2)cc1	i	-10.8%
COc1cccc(NC(=O)CN(C)C(=O)c2ccc3c(c2)S(=O)(=O)N=C2CCCCCN23)c1	-20.4%	-6.3%
Cc1ccc(SCC(=O)NCCCc2ccccc2)cc1	-13.8%	-12.9%
CCOc1ccc(S(=O)(=O)Nc2ccc(C(=O)NCC3(N4CCCCC4)CCCCC3)cc2)cc1	i	-27.5%
O=C1/C(=C/Nc2ccc3c(c2)OCO3)CCc2ccccc21	?	-16.1%
CCc1nnc(NC(=O)CN2C(=O)CCC2=O)s1	-8.9%	-5.9%
Cc1ccc(S(=O)(=O)N=N/C=C2\C=CC=CN2O)cc1	i	-23.8%
O=C(CN(C(=O)CCC(=O)Nc1ccccn1)c1ccc(F)cc1)NCCc1ccccc1	-13.5%	-2.4%
CCOC(=O)c1cnc2cc(C(F)(F)F)ccc2c1N1CCN(c2cccc(Cl)c2)CC1	-0.4%	0.9%
CCOc1cc(/C=N/NC(=O)C(N)=O)cc(Br)c1O	-10.3%	-15.5%
Cc1ccccc1N(C(=O)c1ccco1)C(C(=O)NC1CCCC1)c1cccnc1 (centres undefined)	-5.6%	6.6%
Cn1c(=O)c2c(-c3ccccc3)n3c4ccccc4nc(-c4ccccc4)c3c2n(C)c1=O	-10.8%	-2.7%
CN(C)c1ccc(/C=C/c2nccc3ccccc23)cc1	-1.3%	28.2%
O=C(OCCN1CCCC1=O)c1cc(F)c(F)c(F)c1F	-28.3%	-23.7%
CCC(Sc1nc2ccccc2o1)C(=O)O (centres undefined)	i	-10.0%
O=C(COCc1cc(-c2ccc3c(c2)OCO3)on1)N1CCN(c2ccccc2)CC1	-10.2%	-9.1%
COc1ccc(-c2csc(-c3cc4ccccc4oc3=N)n2)cc1	-1.5%	3.4%
O=C(CCN1C(=O)/C(=C/c2cccs2)SC1=S)Nc1cccc(C(=O)O)c1	-30.0%	6.7%
Cc1ccc(S(=O)(=O)N(C)C)cc1NC(=O)CN1C(=O)NC2(CCCc3ccccc32)C1=O (centres undefined)	-9.1%	-7.8%
CC1CCc2c(sc(NC(=O)C3c4ccccc4Oc4ccccc43)c2C(=O)OC(C)C)C1 (centres undefined)	-6.0%	1.7%
